Bioassay records deposited in PubChem BioAssay by ICCB-Longwood Screening Facility, Harvard Medical School.
Sa growth inh – inhibitors of Staphylococcus aureus growth at 42 °C; S. aureus RN4220 growth, OD600, 20 h; active compounds read low; relative growth, % (concentration not given with the values); hit rate 0.53% among 170,000; AID 720641;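 active = growth at 42 °C up to 50% and 20 or more points under that at 30 °C, or under 10% at both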;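 note: 300 nL library stock went into each well; scaled to the means of positive and negative controls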
GIV-Gai inh – inhibitors of GIV GBA-motif binding to rat Galpha-i3. P08753. Galpha-i3/FITC-GIV peptide fluorescence polarization, 90 min; active compounds read low; scaled: aluminum fluoride 0%, vehicle 100%. percent of control (FP), % (test concentration not listed). hit rate 0.42% among 210,000;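 active = replicate mean at 85% of control or lower, very high polarization wells dropped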;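 note: lower values mean more displacement of the GIV peptide from Galpha-i3; wells of about 15 µL received 100 nL stock; the first replicate is given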
Target sequence (P08753 whole entry, looked up): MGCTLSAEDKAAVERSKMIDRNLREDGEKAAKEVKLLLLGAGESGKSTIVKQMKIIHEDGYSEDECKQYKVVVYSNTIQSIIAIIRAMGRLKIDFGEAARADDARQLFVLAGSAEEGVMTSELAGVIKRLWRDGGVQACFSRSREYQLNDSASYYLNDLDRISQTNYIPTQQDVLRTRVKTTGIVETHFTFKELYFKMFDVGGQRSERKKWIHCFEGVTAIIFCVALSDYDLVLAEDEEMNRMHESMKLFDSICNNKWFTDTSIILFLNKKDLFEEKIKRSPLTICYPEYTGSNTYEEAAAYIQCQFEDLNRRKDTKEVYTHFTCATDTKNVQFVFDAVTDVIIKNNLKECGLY
HCMV NEC inh – disrupts HCMV UL50-UL53 complex binding; hit rate 0.15% among 190,000; AID 1918969; inhibition, % (no concentration beside the values); HTRF UL50-UL53 interaction, normalized percent inhibition;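 active = both replicates at 50% or more, plus weaker picks with an unusually low signal ratio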;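 note: stock transfer was 100 nL into about 20 µL; 0% = negative control wells and 100% = wells with untagged competitor protein; inactives centre near -12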
Sa growth inh second temp – further read-out of Sa growth inh, marked with its call; relative growth, %; measured here: growth at 30 °C;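 optical density after 20 h as mean of two plates; 100% = untreated growth and lower means inhibition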
* hit, by the source's call; / = no result given; & = joins results of further samples. The order is random, and some 0.82% of all compounds hit somewhere here.

compound | Sa growth inh | Sa growth inh second temp | GIV-Gai inh | HCMV NEC inh
OC1(C(F)(F)F)CC(c2ccccc2)=NN1c1cccc2cccnc12 (configuration not stated) | / | / | 101.9 | -14.5
S=C(Nc1cccc(Cl)c1)Nc1cc(-c2ccc(Cl)cc2)[nH]n1 | 85.6 | 73.3 | 103.4 | /
COc1ccc(C)c2sc(N(Cc3cccnc3)C(=O)CCc3ccccc3)nc12 | 117.4 | 85.4 | 100.0 | /
CCOC(=O)c1ccc(NC(=O)COc2cccc3c(=O)n(C)ccc23)cc1 | 111.7 | 89.8 | 97.8 | /
Cc1cc(C)c2c(n1)sc1c(=O)n(-c3cccc4cccnc34)nnc12 | 99.7 | 86.7 | 100.0 | -9.7
CCc1cc(C(=O)Nc2ccc(F)cc2F)no1 | / | / | 103.9 | -29.1
CCC(C)Nc1nc(Cl)nc(N(C#N)CN2C(=O)c3ccccc3S2(=O)=O)n1 (configuration not stated) | 85.5 | 79.5 | 104.4 | -13.7
CCc1ccc(NC(=O)C(C)N2CCN(S(=O)(=O)c3ccc(C)cc3C)CC2)cc1 (configuration not stated) | 136.7 | 92.7 | / | -18.1
COC(=O)C1=C(c2ccccc2)c2cc(Cl)ccc2S(=O)(=O)N1CC(=O)N1CCCCC1 | / | / | 98.2 | -23.5
Cc1ccn2c(Nc3ccc4c(c3)OCCO4)c(-c3ccccc3O)nc2c1 | 89.7 | 86.9 | 98.3 | -5.8
COc1ccc(CCNC(=O)C2CC2(c2ccc(C)cc2)c2ccc(C)cc2)cc1OC (configuration not stated) | 69.9 | 54.6 | 102.2 | /
CCCc1cc(=O)n2[nH]c(-c3ccc(I)cc3)cc2n1 | 108.4 | 104.4 | 105.9 | -1.9
COC(=O)c1cnn2c(C(F)(F)F)cc(-c3ccc(OC)c(OC)c3)nc12 | / | / | 118.9 | -53.3
Cc1c(C(=O)O)sc2ncn(CC(=O)Nc3cccc(C(F)(F)F)c3)c(=O)c12 | / | / | 107.4 | -2.7
O=c1[nH]c(C(F)(F)F)nc2ccc3ccccc3c12 | 115.2 | 51.7 | / | -13.5
NCC(O)(CS(=O)(=O)O)c1ccc(Cl)cc1 (configuration not stated) | / | / | 109.5 | -6.7&-9.0
COc1ccc(-c2nn(-c3ccccc3)cc2C(=O)N(C)C)cc1 | 97.5 | 83.5 | 108.0 | /
O=C(NCCCN1CCOCC1)c1cnn2c(C(F)(F)F)cc(-c3ccccc3)nc12 | 94.4 | 81.4 | 100.9 | -79.8
COc1ccc(NC(=O)CSc2cn(Cc3ccc(Cl)cc3)c3ccccc23)cc1 | 104.1 | 80.7 | 100.3 | /
CCC(CC)C(=O)Nc1cccc(NC(C)=O)c1 | 111.2 | 90.4 | 105.8 | -11.8
CCN1CCN(c2ncnc3c2sc(=S)n3-c2ccccc2)CC1 | 95.8 | 97.0 | 116.8 | 2.5
CSc1nc(C)cc(SCCOc2ccccc2)n1 | 91.7 | 78.3 | 106.5 | -3.2
CCC(C)NC(=O)CSc1c2c(nc3cc(Cl)ccc13)CCCC2 (configuration not stated) | 102.5 | 91.8 | 101.6 | -35.2
COc1ccc(CCNC(=O)c2ccc(N(C)S(C)(=O)=O)cc2)cc1 | 103.4 | 100.6 | 105.2 | 10.6
CCn1c(COc2ccccc2C(C)C)nnc1SCc1nc2ccccc2c(=O)[nH]1 | 101.0 | 84.0 | 104.9 | -8.2
Oc1c(N=Nc2ccc3c(c2)OCO3)sc2ccccc12 | 87.0 | 92.5 | / | -23.6
CN(C(=O)COc1ccc(C#N)cc1)C1CCCCC1 | 89.0 | 80.7 | / | -37.4
COc1ccc(-c2cc(C(=O)N3CCCC3)c3ccccc3n2)cc1 | 84.0 | 97.8 | / | -4.5
CCCn1c2ccccc2c2nnc(SCC(=O)Nc3cccc(C(C)=O)c3)nc21 | 115.8 | 87.8 | 98.7 | -72.2
CCOCCCNC(=O)CN1C(=O)CCn2nc(-c3cccn3C)cc21 | 91.0 | 90.3 | 104.4 | /
O=C(NC1CCCCCCC1)C1CCCN(S(=O)(=O)c2cnc[nH]2)C1 (configuration not stated) | 102.6 | 89.4 | 98.3 | /
O=C1c2ccccc2C(=O)c2c(NCCc3ccc(O)cc3)ccc(NCCc3ccc(O)cc3)c21 | / | / | 136.2 | -55.5
CC1CCN(CC(=O)Nc2nccs2)CC1 | 126.4 | 103.8 | 103.7 | -5.2
CN1CCCN(C(=O)c2ccc(S(=O)(=O)N(C)C)cc2)c2nc3ccccc3nc21 | 80.6 | 89.6 | / | -19.1
CCn1c(CN(c2ccc(F)cc2)S(C)(=O)=O)nnc1SCC(=O)N(C)c1ccccc1 | / | / | 102.9 | -6.9
Cc1ccc(C(=O)N2CCc3cc(CNC(=O)c4ccc(Br)cc4)ccc32)cc1 | 117.3 | 92.2 | 93.7 | /
C=CCC(C(=O)OC)N1CCCCC1 (configuration not stated) | 87.0 | 92.8 | 95.7 | -5.5
NC(=O)C1CCCc2c1[nH]c1ccccc21 (configuration not stated) | 102.3 | 91.8 | 101.3 | 8.1
Cc1onc(-c2c(Cl)cccc2Cl)c1C(=O)NCCO | 88.8 | 81.6 | 97.8 | -21.0
Cc1ccc(C(=O)OCC(=O)N(C)c2ccccc2)s1 | 131.3 | 88.5 | / | -22.3
Cc1cccc(CNC(=O)CCCN2C(=O)COc3ccc(C)cc32)c1 | 100.7 | 87.7 | 101.8 | 9.6
C#CCn1c(=NC(=O)C(C)C)sc2c(C)cc(C)cc21 | 110.0 | 94.8 | 101.1 | -13.8
N#Cc1cnn(-c2ccccc2)c1NC(=O)CN(Cc1ccccc1)Cc1ccccc1 | 110.7 | 98.7 | 100.6 | -12.3
O=C(NCc1ccco1)c1ccc2c(c1)N(Cc1ccccc1F)C(=O)c1ccccc1S2=O (configuration not stated) | 82.2 | 88.9 | 99.7 | -32.0
CCNCc1c(C(=O)O)c(C)n(Cc2ccc(Cl)cc2)c1C | 100.2 | 109.4 | 114.2 | 6.6
CC1CCN(S(=O)(=O)c2ccc3c(c2)C(C)(C)C(=O)N3CC(=O)Nc2nccs2)CC1 | / | / | 107.4 | -23.9
CCc1nnc2c(Nc3cccc(C(C)=O)c3)nc3ccccc3n12 | 112.2 | 98.1 | 104.9 | /
O=C(OCn1nnc2ccccc2c1=O)C1(c2ccc(Cl)cc2)CCCC1 | 84.4 | 86.7 | 99.4 | /
O=C1CC(c2cccs2)SC(N(c2ccccc2)c2ccccc2)=N1 (configuration not stated) | 96.7 | 77.9 | 100.8 | /
CC(=O)Nc1ccc(C2Nc3cc(C)ccc3O2)cc1 (configuration not stated) | 77.6 | 59.4 | 114.4 | -39.4

Later entries.
compound | Sa growth inh | Sa growth inh second temp | GIV-Gai inh | HCMV NEC inh
CCOc1ccc(NC(=O)c2nc(S(=O)(=O)Cc3ccccc3F)ncc2Cl)cc1 | 78.8 | 61.7 | 99.8 | -14.6
Cc1ccc2onc(CC(=O)N3CCN(c4ccc(F)cc4)CC3)c2c1 | 113.3 | 89.9 | 102.4 | -8.3
O=C(O)c1ccc(CS)cc1 | 98.5 | 90.8 | / | -11.8
Cc1ccc(N2CC(C(=O)Nc3c(C(N)=O)oc4ccccc34)CC2=O)cc1 (configuration not stated) | 100.4 | 70.1 | 102.4 | -30.5
COC(=O)c1ccc(NC(=O)c2nn(C)c3c2CS(=O)(=O)c2ccccc2-3)cc1 | 113.5 | 89.0 | 86.0 | -16.2
COc1ccc(Cl)cc1NC(=O)Cn1cc(S(=O)(=O)Cc2cccc(Cl)c2)c2ccccc21 | 118.8 | 89.0 | 105.7 | /
O=c1c2sccc2n2c(SCc3ccc(F)cc3Cl)nnc2n1CC1CCCO1 (configuration not stated) | / | / | 99.2 | -20.8
O=c1c2[nH]c(=S)[nH]c2cnn1-c1ccccc1 | 62.8 | 70.4 | 102.7 | -21.6
O=C(Nc1cccc(C(=O)N2CCCCC2)c1)c1nsc2ccccc12 | 101.8 | 79.2 | 101.8 | /
COC(=O)Cn1c(=O)c2c(nc3n2CCN3c2ccc(F)cc2)n(C)c1=O | 110.5 | 82.8 | 103.7 | /
CC(C)(C)NC(=O)NC(=O)CN1CCN(S(=O)(=O)/C=C/c2ccccc2)CC1 | 100.0 | 93.5 | / | -19.8
O=C(Nc1cccc(NC(=O)c2cccc(S(=O)(=O)N3CCCCC3)c2)c1)c1ccc(Br)cc1 | / | / | 99.7 | 1.8
COc1ccc(Cn2c(=O)[nH]c3cc(C(=O)NC4CCCCC4C)ccc32)cc1 (configuration not stated) | 101.9 | 103.0 | 104.8 | 19.0
COC(=O)CC1C(=O)NCCN1C(=O)c1ccc2c(c1)S(=O)(=O)c1ccccc1C2=O (configuration not stated) | 79.4 | 87.2 | / | -92.7
O=c1c2ccccc2c(=O)c2c1c(NCc1ccccc1)cc1oc3ccccc3[nH]c12 | / | / | 110.1 | 5.8
CCS(=O)(=O)NCc1cccn1Cc1ccccc1 | / | / | 107.2 | -22.5
N#Cc1c(Cl)cccc1NCC1(N2CCOCC2)CCCCC1 | 82.3 | 96.3 | / | -11.8
S=c1sc2c(Cl)ncnc2n1-c1ccccc1 | 84.7 | 59.0 | 96.5 | 15.6
COc1ccc(C(=O)CNc2cccc(F)c2)cc1 | 85.3 | 92.9 | / | -23.1
CC1=C(C(=O)OC2CCCC2)C(c2cc3c(cc2[N+](=O)[O-])OCO3)C2=C(CC(c3ccccc3)CC2=O)N1 (configuration not stated) | / | / | 109.8 | 1.4
Cc1cccc(-c2noc(CSc3ccccc3)n2)c1 | 116.4 | 106.9 | 103.7 | 4.3
COc1ccc(NC(=O)CN(C)C(=O)c2ccc(S(=O)(=O)N3CCOCC3)cc2)cc1 | 79.8 | 92.1 | / | -34.0
CCCCN(C)c1ccc(NC(=O)C2CC2)c(C(=O)O)c1 | / | / | 104.8 | 11.9
CCOC(=O)c1sc(NC(=O)c2csnn2)c(C(=O)OCC)c1C | / | / | 97.6 | -14.6
O=c1oc(C23CC4CC(CC(C4)C2)C3)ns1 | 90.6 | 61.9 | / | -11.0
CC(C)c1ccc(C=NCCO)cc1 | 104.4 | 114.1 | 100.8 | 4.3
O=C(Nc1cc(-c2nc3ccccc3s2)ccc1Cl)c1cc2ccccc2o1 | 96.5 | 92.2 | 110.3 | -1.4
CC(C)NCC(O)c1cc(O)cc(O)c1 (configuration not stated) | 96.3 | 95.6 | 99.6 | -17.3&-28.0&-63.3&-13.7
COc1ccc(S(=O)(=O)N2CCC(O)(c3cccnc3)CC2)cc1OC | 102.9 | 96.5 | 107.6 | 3.2
NC(=O)c1cccc(NC(=O)c2ccccc2I)c1 | 94.6 | 80.7 | 100.1 | -16.5
O=C1c2cccnc2C(=O)N1Cc1ccc(S(=O)(=O)N2CCCCCC2)cc1 | 110.2 | 93.7 | 100.4 | -40.1
CC1Oc2ccc(S(=O)(=O)N3CCN(C(=O)Nc4ccccc4Cl)CC3)cc2NC1=O (configuration not stated) | / | / | 109.9 | -2.7
CCOc1ccc(CNC(=O)C2CCN(c3nc4ccccc4[nH]3)CC2)cc1 | 85.5 | 44.0 | 107.6 | 3.9
O=c1oc(-c2ccco2)nc2sc3c(c12)CCC3 | / | / | 106.0 | -25.5
C/C(=C\C(=O)c1ccc(Cl)cc1)Nc1ccncc1 | 126.4 | 90.3 | 100.4 | -7.0
COc1ccc(NC(=O)c2oc3ccc4c(c3c2C)C(=O)CC(C)(C)O4)cc1OC | 108.0 | 79.0 | 106.9 | /
O=C(Nc1cccc(F)c1)C1CCCN(c2nc3ccccc3nc2C(F)(F)F)C1 (configuration not stated) | / | / | 100.8 | 5.7
CC(C)(C)c1ccc2[nH]c3c(cc(NC4CCCCC4)c4c(=O)c5ccccc5c(=O)c43)oc2c1 | / | / | 104.5 | 2.4
O=C(Nc1ccc(F)cc1F)c1cc(-c2ccccc2O)no1 | 97.2 | 81.9 | 111.2 | /
Cc1cc(-c2ccc(C)c(S(=O)(=O)Nc3ccccn3)c2)on1 | 93.5 | 96.9 | 101.0 | /
Cc1sc(/N=C/c2ccc(Br)s2)c(C(N)=O)c1C | 74.6 | 83.4 | / | -20.8
O=C(NC(Nc1ccc(Cl)cc1)C(=O)c1ccccc1)c1ccccc1 (configuration not stated) | 99.7 | 82.3 | 98.0 | /
Cc1ccc2c(c1)cc(C(=O)NCc1ccccc1C)n2C | 88.8 | 88.8 | 98.4 | -43.2
Cc1cccc(-c2nc3ccccc3n3c(-c4ccccc4)c4c(=O)n(C)c(=O)n(C)c4c23)c1 | 88.6 | 104.4 | 105.6 | -3.2
Cc1ccccc1C1C2=C(Nc3c1c(=O)n(C)c(=O)n3C)c1ccccc1C2=O (configuration not stated) | 90.7 | 99.4 | 103.4 | /
COc1cc(NC(=O)CN2CCCCCC2=O)c(OC)cc1Cl | 100.5 | 87.4 | / | -6.9
CN(Cc1nc2ccccc2c(=O)[nH]1)C(=O)c1nn(Cc2ccccc2)c(=O)c2ccccc12 | 95.6 | 101.6 | / | 1.1

A second format for five compounds above.
Order of results: Sa growth inh	Sa growth inh second temp	GIV-Gai inh	HCMV NEC inh
> O=C(Nc1ccc(F)cc1F)c1cc(-c2ccccc2O)no1
 : 97.2	81.9	111.2	/
> Cc1cc(-c2ccc(C)c(S(=O)(=O)Nc3ccccn3)c2)on1
 : 93.5	96.9	101.0	/
> Cc1sc(/N=C/c2ccc(Br)s2)c(C(N)=O)c1C
 : 74.6	83.4	/	-20.8
> O=C(NC(Nc1ccc(Cl)cc1)C(=O)c1ccccc1)c1ccccc1 (configuration not stated)
 : 99.7	82.3	98.0	/
> Cc1ccc2c(c1)cc(C(=O)NCc1ccccc1C)n2C
 : 88.8	88.8	98.4	-43.2
